High-throughput results from PubChem BioAssay.
ClpP mod: qHTS Assay for Activators of ClpP. ATP-dependent Clp protease proteolytic subunit (Bacillus subtilis (strain 168)), P80244. purified B. subtilis ClpP, FRET peptide cleavage, 20 min. Potency, µM (top dose mostly 57.5 µM), without a hit: at the highest dose activity change, negative = active. actives 1.9% (n = 340,000). AID 651965, 2013; active = well fitted falling curve with a large enough effect; inconclusive = small, poorly fitted or top-dose-only effect; inactive = no such curve, though single readings can be large or run the other way; further: potency means the concentration at half of the fitted maximal effect; the source files actives as falling curves though it sought activators and does not explain the sign; nearly all actives have a fitted effect of over 65% in size; many hits overshoot -100%
Target sequence (P80244 whole entry, looked up): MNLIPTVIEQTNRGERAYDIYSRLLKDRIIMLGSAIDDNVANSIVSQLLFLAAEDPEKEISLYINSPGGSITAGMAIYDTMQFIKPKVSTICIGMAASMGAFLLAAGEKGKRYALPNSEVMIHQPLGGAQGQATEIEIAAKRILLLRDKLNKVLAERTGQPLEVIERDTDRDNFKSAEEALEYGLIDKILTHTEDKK
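Buffer: 100 mM Tris/HCl pH8, 100 mM KCl, 0.05% low protease BSA, 2.5% glycerol, 0.01% Tween-20. ClpP 10 microg/mL final; 20 min RT; delta FRET normalized to ADEP and DMSO controls.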
Menin-MLL FL inh: displaces fluorescein MLL peptide from human menin; 290,000 tested, under 10 active; FP activity change, % at 61.4 µM; Fluorescence polarization, fluorescein-MLL peptide displacement from menin; inconclusive = falling polarisation curve, or a change in total fluorescence; inactive = total fluorescence flat and polarisation flat or rising; no compound was filed as active; the % refers to the polarisation; negative = inhibition;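 further: % of control where 0% means no effect; inhibitors lower the polarisation; unlabelled MLL peptide was the positive control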
TRPV1 PAM: enhances activation of the human vanilloid receptor TRPV1; potentiation, % at 8.33 µM; actives 0.02% (n = 320,000); TRPV1-expressing cells, Fluo-8 calcium influx, capsaicin EC20 potentiation; host cell line not named in the record; control for the full effect not named in the record; Q8NER1; AID 540277; active means potentiation above 80%; inconclusive means 30% to 80%; inactive means below 30%; further: 0% is about no effect
Target sequence (Q8NER1 whole entry, looked up): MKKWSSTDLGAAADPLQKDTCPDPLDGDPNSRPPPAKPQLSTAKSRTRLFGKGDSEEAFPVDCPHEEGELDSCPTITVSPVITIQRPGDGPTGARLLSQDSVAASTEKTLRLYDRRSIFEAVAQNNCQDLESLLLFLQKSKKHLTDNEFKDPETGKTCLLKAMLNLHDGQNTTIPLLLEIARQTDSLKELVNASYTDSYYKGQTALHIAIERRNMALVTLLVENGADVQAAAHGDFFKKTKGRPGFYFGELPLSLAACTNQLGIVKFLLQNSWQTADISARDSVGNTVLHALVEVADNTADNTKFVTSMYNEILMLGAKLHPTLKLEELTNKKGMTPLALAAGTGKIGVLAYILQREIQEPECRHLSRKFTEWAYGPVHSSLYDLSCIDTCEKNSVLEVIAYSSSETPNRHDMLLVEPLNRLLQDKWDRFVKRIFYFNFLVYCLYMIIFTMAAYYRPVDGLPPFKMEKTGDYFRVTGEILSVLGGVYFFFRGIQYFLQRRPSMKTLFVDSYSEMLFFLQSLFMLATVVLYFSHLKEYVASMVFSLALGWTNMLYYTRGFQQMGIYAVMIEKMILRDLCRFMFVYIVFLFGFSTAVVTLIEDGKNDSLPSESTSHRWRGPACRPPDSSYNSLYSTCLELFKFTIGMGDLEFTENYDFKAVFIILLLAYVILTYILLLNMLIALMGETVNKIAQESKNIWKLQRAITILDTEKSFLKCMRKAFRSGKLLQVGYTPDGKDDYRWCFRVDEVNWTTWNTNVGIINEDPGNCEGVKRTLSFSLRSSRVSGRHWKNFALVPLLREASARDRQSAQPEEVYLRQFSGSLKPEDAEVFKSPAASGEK
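Fluo-8 calcium influx in TRPV1-expressing cells, kinetic read (ex 480/em 520 nm). Compound added and read 3 min for agonist activity, followed by capsaicin at EC20 final and 2 min further read for enhancement.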
gsp antag: antagonizes gsp, the McCune-Albright syndrome mutation; AID 624288; gsp-mutant cells, cAMP HTRF, 30 min; control for the full effect not named in the record; Potency, µM (doses to about 76.9 µM), without a hit: at the highest dose activity change, negative = inhibition, actives largely listed as inhibitors; actives 0.4% (n = 340,000); active = falling curve of any shape with a large fitted effect; inconclusive = falling curve, mostly with a smaller effect; inactive = flat or rising curve; cell line not stated here;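 further: intracellular cAMP measured with PDE inhibitor Ro 20-1724 present during compound exposure; potency means the concentration at half of the fitted maximal effect; on the % scale 0 is the no-effect control and ±100 the full control effect; nearly all actives have a fitted effect of over 65% in size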
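HTRF cAMP read-out (cAMP-d2 plus anti-cAMP antibody-K in lysis buffer, 30 min RT). Before lysis, cells are exposed to compounds with […] for 30 min at 37C in DPBS containing Ca/Mg, BSA and Tween 20.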
Sfp PPTase inh: Sfp phosphopantetheinyl transferase inhibition; AID 1490; actives 3.5% (n = 310,000); Potency, µM, for the others: max response, negative = inhibition, usual class: inhibitors; Q9F4F7; Biochemical Sfp PPTase activity, qHTS; active means well fitted inhibition curve with a large enough effect; inconclusive means small, poorly fitted or top-dose-only effect, or another doubt; inactive means no such curve, though single readings can be large or run the other way;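 further: the enzyme is Sfp with the accession as filed and its product quenches rhodamine fluorescence; potency means the concentration at half of the fitted maximal effect; 0% = enzyme reaction without inhibitor and -100% = no enzyme wells; top concentration of the series not given in the record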
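Compounds were incubated with enzyme (final 15 nM) for 15 min at room temperature before substrate addition started the reaction. Fluorescence at 525 nm excitation, 598 nm emission was recorded immediately and after 30 minutes.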
gsp agonist: gsp mutant agonism; gsp mutant cells, cAMP HTRF, 30 min; control for the full effect not named in the record; Potency, µM (series often up to 76.9 µM), without a hit: top-dose activation (cAMP increase), usual class: activators; actives 0.13% (n = 340,000); AID 624287; active = well fitted activation curve with a large enough effect; inconclusive = small, poorly fitted or top-dose-only effect, or another doubt; inactive = no such curve, though single readings can be large or run the other way; cell line not stated here;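 further: phosphodiesterase inhibitor Ro 20-1724 added with compounds to block cAMP breakdown; potency means the concentration at half of the fitted maximal effect; nearly all actives have a fitted effect of over 60% in size; about a fifth of the inactives were tested at one dose only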
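Cells in DMEM/10% FBS with G418 were pretreated with compounds in DMSO plus […] (300 uM stock) for 30 min at 37C. cAMP was measured by HTRF (cAMP-d2 plus anti-cAMP antibody-K) after 30 min at room temperature.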
D2 potentiator: potentiates the human D2 dopamine receptor allosterically; DiscoveRx D2 beta-arrestin cells, luminescence, 90 min; 100% = 57 uM dopamine signal; potentiation, % (test concentration not listed); actives 0.23% (n = 360,000); active = potentiation of 50% or more; inconclusive = 30% to 50%; inactive = 30% or less;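 further: compound concentration not given in the record; tested on top of an EC20 dose of dopamine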
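PathHunter beta-arrestin assay in DiscoveRx D2 cells. Compounds were added with an EC20 of dopamine (50 nM final) for 90 min at 37 deg C. Luminescence was read 1 h after detection reagent, with 57 uM dopamine as the EC100 control.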
Active calls of the source: *; ? = inconclusive; . = no result given; [ ] = another dose, or the depositor's remark.

SMILES | ClpP mod | Menin-MLL FL inh | TRPV1 PAM | Sfp PPTase inh | gsp antag | gsp agonist | D2 potentiator
NC(=O)c1c(NC(=O)c2ccc(N3C(=O)CCC3=O)cc2)sc2c1CCCC2 | -3.6% | . | 5 | . | -12% | 7% | 16
COC(=O)c1cc(NC(=O)C(C)c2ccc(CC(C)C)cc2)ccc1O (stereo unspecified) | . | -7.2 | -13 | 11% | -2% | 11% | -6
Cc1cc(C)n2nc(-c3ccc(F)cc3)cc2n1 | ? | . | . | . | . | -1% | -7
C=CC[C@H](CC(=O)NCCO)C(=O)N[C@@H](C)COC(=O)[C@@H](CC=C)CC(=O)OC(C)(C)C | -0.2% | . | . | . | 6% | ? | -15
CC(=O)N1CCOc2ccc(S(=O)(=O)N3CCC(C(=O)Nc4ccc(C)c(C)c4)CC3)cc21 | 1.3% | . | 4 | 19% | -21% | 13% | -25
COc1cc(CCC(=O)Nc2nnc(C)s2)cc(OC)c1OC | . | -7.2 | 2 | 9% | 15% | ? | -4
Cc1nc2ccccc2n1C1CC(=O)N(N(C)C)C1=O (stereo unspecified) | 1.4% | -1.6 | 2 | 10% | 2% | -4% | 5
CCOC(=O)C1CCN(C(c2cccc(F)c2)c2sc3nc(C)nn3c2O)CC1 (stereo unspecified) | -0.1% | -1.9 | 18 | 27% | -4% | 14% | -3
CCCc1cc(=O)[nH]c(SCC(=O)N(CC)C2CCS(=O)(=O)C2)n1 (stereo unspecified) | -1.8% | 1.9 | -2 | 17% | 16% | -20% | -13
CCOCCCNCC(=O)N1CCN(S(=O)(=O)c2ccc(C)cc2)CC1 | -1.5% | -2.8 | 4 | -23% | 10% | 25% | -4
COc1ccc(/C=C/C(=O)Nc2ccccc2C(=O)NCC(c2ccc(OC)cc2)N(C)C)cc1 (stereo unspecified) | -3.6% | 1.4 | 19 | 1% | -11% | ? | -33
NS(=O)(=O)c1cccc(NC(=O)CNC(=O)CC23CC4CC(CC(C4)C2)C3)c1 | -16% | 1.0 | -4 | 12% | -9% | 15%[15.4 µM] | -9
CCn1c(O)c(/C=N/N=C2CCCCC2)c2cc(C3=NNC(=O)CC3)ccc21 | . | ? | -5 | ? | -19% | -4%[15.4 µM] | -10
COc1ccc2c(c1)C=C(C(=O)NCc1ccc(Cl)cc1)CO2 | -3.0% | 2.1 | -9 | -1% | ? | 8% | -18
O=C(NNC(=O)c1ccccc1F)c1cccc(Cl)c1 | -1.9% | 3.9 | 1 | 15% | 5% | -13% | -6
O=S(=O)(c1ccccc1F)N1CCc2ccccc2C1 | . | 1.2 | -10 | 6% | -1% | -27% | -4
COc1ccc(C)cc1NC(=O)CCCN1C(=O)C2CC=CCC2C1=O (stereo unspecified) | -0.8% | -2.2 | 1 | 10% | 5% | -1%[15.4 µM] | -10
Cc1ccc(CNC(=O)c2nc3nc(C)cc(C)n3n2)cc1 | -27% | 0.1 | ? | 10% | 8% | ? | 3
CCN(CC)CCNc1nc(-c2ccco2)c2c(c1C#N)CC(C)(C)OC2 | ? | 5.6 | 4 | 5% | 7% | -4% | -14
CCCN(CC#CC(O)(c1ccccc1)c1cccnc1)CCC (stereo unspecified) | -1.3% | -2.8 | -14 | -17% | 5% | -30%[inhibitor] | -19
CC(C)n1nc(C(=O)Nc2ccccc2N2CCOCC2)c2ccccc2c1=O | -3.2% | 9.6 | 4 | -14% | 11% | 24% | -6
Cc1cc(C)cc(NC(=O)c2cnn(-c3ccccc3)c2C2CCNCC2)c1 | -2.7% | -1.9 | 9 | 6% | 7% | -79%[inhibitor] | -12
CN(C)C(=S)Oc1ccccc1C1(C)OCCO1 | 0.5% | . | . | . | . | -19% | -9
O=C(Nc1nnc(-c2ccco2)o1)c1ccc(N2C(=O)CCC2=O)cc1 | -8.3% | 2.7 | -9 | 79µM* | 5% | -5%[15.4 µM] | -10
CN(C)CC1CCCCC1OC(=O)c1ccc(Cl)cc1 (stereo unspecified) | -1.1% | 0.0 | 5 | 16% | 12% | 5% | -32

3 entries out of the list above, sorted by their value in Sfp PPTase inh, lowest first:
SMILES	Sfp PPTase inh
CC(C)n1nc(C(=O)Nc2ccccc2N2CCOCC2)c2ccccc2c1=O	-14%
Cc1cc(C)cc(NC(=O)c2cnn(-c3ccccc3)c2C2CCNCC2)c1	6%
COc1ccc(C)cc1NC(=O)CCCN1C(=O)C2CC=CCC2C1=O (stereo unspecified)	10%

Going on with the list.
SMILES | ClpP mod | Menin-MLL FL inh | TRPV1 PAM | Sfp PPTase inh | gsp antag | gsp agonist | D2 potentiator
CCNc1nc(Cl)nc(N(NC(C)=O)C(C)C)n1 | . | 5.1 | 2 | 18% | 9% | ? | -3
Cc1cc(Cl)c(O)c(-n2nc3ccccc3n2)c1 | -2.0% | -0.9 | 0 | -4% | 11% | ? | -8
Cc1ccccc1CC1(CO)CCCN(Cc2ccc3c(c2)OCCO3)C1 (stereo unspecified) | 0.6% | 8.9 | -8 | 10% | -3% | 13% | -20
COc1cc(CN2CC(=O)N(c3cc(Cl)ccc3C)C2=S)cc(OC)c1OC | 0.1% | -2.8 | -1 | -5% | -16% | 3% | -1
Cc1ccccc1/C=N/N1C(=O)CSC1=S | 0.8% | 12 | 0 | -16% | -2% | ? | -13
CSc1nc(C(=O)N2CCCC(N3CCN(c4ccccc4C)CC3)C2)cs1 (stereo unspecified) | 0.9% | . | -26 | 3% | -15% | 0% | -32
O=C(OCc1nnc(-c2ccccc2)o1)c1cc(=O)[nH]c2ccccc12 | . | . | 10 | . | 2% | -7%[15.4 µM] | -2
Cc1ccccc1C(=O)Nc1nnc(-c2ccco2)s1 | . | 0.2 | 2 | -10% | 0% | 14% | -3
COc1ccc(/C=C/C(=O)CC(O)(c2ccccc2)C(F)(F)F)cc1 (stereo unspecified) | -2.3% | 0.7 | -1 | -6% | -1% | 3% | 9
O=C(O)c1ccc2cccnc2n1 | . | ? | -11 | -59% | -2% | 17%[15.4 µM] | 10
Cc1cc(C)c(S(=O)(=O)c2c(C)cccc2C)c(Cl)n1 | -2.2% | 1.0 | 13 | 14% | ? | 5% | 8
Cc1cc2c(c(=O)n1CCc1ccccc1)C(c1ccco1)C(C#N)=C(N)O2 (stereo unspecified) | ? | ? | ? | ? | -13% | -30%[inhibitor] | -11
COc1ccc(Cl)cc1N(CC(=O)Nc1ccc2c(c1)OCO2)S(C)(=O)=O | -0.1% | 0.6 | -15 | 5% | 4% | -7% | -16
CCOC(CNc1ncnc2sc(-c3ccccc3)cc12)OCC | 4.0% | 3.0 | -19 | -18% | -12% | ? | 2
O=C(NN1C(=O)/C(=C/C=C/c2ccco2)SC1=S)c1ccccc1O | . | ? | ? | 56µM* | -21% | 2%[15.4 µM] | -3
COc1cccc(-c2nnc(SCc3ccccn3)n2C)c1 | -3.7% | -0.7 | 1 | -2% | 6% | 15% | 6
CCCCC(Nc1ncnc2ccccc12)C(=O)O (stereo unspecified) | -1.5% | 1.3 | -5 | 8% | 8% | 23% | 3
COc1ccc(C)cc1NC(=O)C1CC(=O)OC12CCCCC2 (stereo unspecified) | 0.9% | -2.6 | 12 | 1% | -2% | 0% | -2
C=C(C)C1CC=C(C)/C(=N\NC(=O)CNc2ccccc2OC)C1 (stereo unspecified) | -0.3% | 2.1 | -13 | -8% | -10% | -44%[inhibitor] | -3
CCCc1c(C(=O)N/N=C/c2ccoc2)nnn1-c1nonc1N | -2.2% | . | . | . | . | ? | -19
Cc1ccccc1NC(=O)N1C2CCCC1CC(NC(=O)C1CC1)C2 (stereo unspecified) | 0.0% | 1.8 | 8 | 1% | 13% | -22% | -3
O=S(=O)(Nc1cccc2cccnc12)c1ccc(S(=O)(=O)N2CCCC2)cc1 | -11% | -2.2 | -6 | 4% | 2% | ? | -39
O=C(Nc1ccccc1C(=O)O)c1ccc(N2C(=O)C3CC=CCC3C2=O)cc1 (stereo unspecified) | -2.0% | 0.5 | 7 | 4% | 4% | 19%[15.4 µM] | -4
Cn1nc(C(C)(C)C)cc1C(=O)NCc1cc(F)cc2c1OCOC2 | -1.0% | 3.1 | . | 11% | -22% | -9% | -9

Exported with two lines to a compound: part of the list above.
Sequence of screens: ClpP mod, Menin-MLL FL inh, TRPV1 PAM, Sfp PPTase inh, gsp antag, gsp agonist, D2 potentiator
NC(=O)c1c(NC(=O)c2ccc(N3C(=O)CCC3=O)cc2)sc2c1CCCC2
    -3.6%, ., 5, ., -12%, 7%, 16
COC(=O)c1cc(NC(=O)C(C)c2ccc(CC(C)C)cc2)ccc1O (stereo unspecified)
    ., -7.2, -13, 11%, -2%, 11%, -6
Cc1cc(C)n2nc(-c3ccc(F)cc3)cc2n1
    ?, ., ., ., ., -1%, -7
C=CC[C@H](CC(=O)NCCO)C(=O)N[C@@H](C)COC(=O)[C@@H](CC=C)CC(=O)OC(C)(C)C
    -0.2%, ., ., ., 6%, ?, -15
CC(=O)N1CCOc2ccc(S(=O)(=O)N3CCC(C(=O)Nc4ccc(C)c(C)c4)CC3)cc21
    1.3%, ., 4, 19%, -21%, 13%, -25
COc1cc(CCC(=O)Nc2nnc(C)s2)cc(OC)c1OC
    ., -7.2, 2, 9%, 15%, ?, -4
Cc1nc2ccccc2n1C1CC(=O)N(N(C)C)C1=O (stereo unspecified)
    1.4%, -1.6, 2, 10%, 2%, -4%, 5
CCOC(=O)C1CCN(C(c2cccc(F)c2)c2sc3nc(C)nn3c2O)CC1 (stereo unspecified)
    -0.1%, -1.9, 18, 27%, -4%, 14%, -3
CCCc1cc(=O)[nH]c(SCC(=O)N(CC)C2CCS(=O)(=O)C2)n1 (stereo unspecified)
    -1.8%, 1.9, -2, 17%, 16%, -20%, -13
CCOCCCNCC(=O)N1CCN(S(=O)(=O)c2ccc(C)cc2)CC1
    -1.5%, -2.8, 4, -23%, 10%, 25%, -4
COc1ccc(/C=C/C(=O)Nc2ccccc2C(=O)NCC(c2ccc(OC)cc2)N(C)C)cc1 (stereo unspecified)
    -3.6%, 1.4, 19, 1%, -11%, ?, -33
